# Hedgehog cleavage: Drosophila hedgehog isoform A inhibitors, primary screen, biochemical, plate reader, single concentration (AID 588832). 8,000 tested, under 10 active. Biochemical plate reader assay, Hedgehog inhibition; hits give high values. inhibition, % at 30.3 µM; in the data active means inhibition from about 57%;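 further: 0% = neutral control wells and 100% = positive control wells; cholesterol-driven self-cleavage of fly hedgehog protein by fluorescence polarization; read one hour after cholesterol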
# * marks the source's active call; other numbers are inactive results.
Hedgehog cleavage	SMILES
11	O=C(NCCN1CCOCC1)c1ccc(CS(=O)(=O)c2c(Cl)cccc2Cl)o1
7	Cc1cc(S(=O)(=O)N2CCN(c3ccccc3O)CC2)c(C)s1
20	CCc1ccc(NC(=O)CSc2nc3c(c(=O)n(C)c(=O)n3C)n2C)cc1
5	O=C1OC(=O)c2cc([N+](=O)[O-])ccc21
4	Cc1cc(NC(=O)C2CC(c3ccc(F)cc3)=NO2)n(-c2ccccc2)n1 (centres undefined)
12	Cc1cc2c(cc1S(=O)(=O)NCc1ccccc1Cl)OCCN2C
7	CCN(CC)S(=O)(=O)c1ccc(NC2c3ccccc3C(=O)N2Cc2ccc3c(c2)OCO3)cc1 (centres undefined)
4	Cc1c(Cc2ccc3c(c2)OCO3)sc(NC(=O)c2ccccc2)c1C(N)=O
11	CCOC(=O)N1CCN(C(=O)c2ccc3c(SCC(=O)O)c4c(nc3c2)CCCC4)CC1
11	O=C(Nc1ccc(-c2nc3cccnc3s2)cc1)C1CCCO1 (centres undefined)
5	Cn1cc(S(=O)(=O)N2CCCC2)cc1C(=O)N1CCN(c2ccccc2)CC1
29	Cc1nc(N(C)C)c2sc(=S)n(C)c2n1
15	NCCSc1c(-c2ccccc2)[nH]c2ccccc12
7	O=C(c1ccc2c(Cl)c3c(nc2c1)CCCC3)N1CCC(N2CCCCC2)CC1
6	Nc1nc2n(n1)C(c1cccc(Br)c1)CC(c1ccccc1)N2 (centres undefined)
2	Cc1ccc(C)c(NC(=O)c2cc3ccccn3n2)c1
17	Cc1ccc2c(c1)N(CC(=O)NCCCN1C(C)CCCC1C)C(=O)c1cccnc1O2 (centres undefined)
0	Cc1coc2cc3oc(=O)c(CCC(=O)N4CCC(C(=O)O)(c5ccccc5)CC4)c(C)c3cc12
8	COc1ccc(-c2nc(CS(=O)CC(=O)NCC3CCCO3)c(C)o2)cc1 (centres undefined)
5	CCCc1cc(=O)oc2cc(C)cc(OCC(=O)N3CCC(C(N)=O)CC3)c12
11	COC(=O)CCC(=O)OC
2	CC1=CCC[C@@H]2[C@]3(CC/C(=C/CO)CO)CO[C@@]2(C1)[C@@H](O)C[C@H]3C
3	Oc1cc(O)cc(-c2cc3ccc(O)cc3o2)c1
3	Nc1nc(SCC(=O)OCc2ccccc2)[nH]c(=O)c1NC(=O)c1ccco1
3	CCn1c(SCC(=O)Nc2ccc3c(c2)OCCO3)nnc1-c1c[nH]c2ccccc12
0	COc1cc(OC)cc(C(=O)OCn2nnc3ccccc3c2=O)c1
12	O=C(NCCn1ccc2ccccc21)c1ccc2c(c1)OCO2
10	Cc1csc2nc(CCNS(=O)(=O)c3ccc4c(c3)OCCO4)cn12
0	O=C(Nc1nc2ccccc2s1)c1cc2c(s1)-c1ccccc1OC2
19	O=C(Nc1ccncc1)C1CCCN(S(=O)(=O)c2cccc3cccnc23)C1 (centres undefined)
6	COc1cccc(C(c2sc3nc(C)nn3c2O)N2CCN(C(=O)c3ccco3)CC2)c1 (centres undefined)
9	Cc1ccc(C(=O)N2CCN(c3ncccn3)CC2)cc1NC1=NC2CS(=O)(=O)CC2S1 (centres undefined)
5	CCN(CC)CCCNC(=O)c1cc(-c2ccc(O)cc2)on1
9	Cc1cccc(NC(=O)c2cc(S(=O)(=O)N3CCOCC3)cn2C)c1C
15	COC(=O)C1=C(C)n2cnnc2NC1c1ccc(Cl)cc1 (centres undefined)
7	COc1ccc(CCNC(=O)CSc2c[nH]c3ccccc23)cc1OC
9	Cn1c(=O)c2c(nc(SCC(=O)Nc3ccccc3)n2C)n(C)c1=O
13	CCOc1ccc(-n2c(SCC(=O)N3CCc4ccccc43)nnc2-c2c[nH]c3ccccc23)cc1
20	Cc1ccc2c(c1)N(S(=O)(=O)c1ccc3c(c1)NC(=O)CC(=O)N3)CCO2
7	CC(C)c1cc2c(c(O)c1O)[C@@]13CCCC(C)(C)C1CC2OC3=O (some centres undefined)
4	CCCc1cc(C(=O)Nc2ccccc2C(=O)OC)no1
5	Cc1cc(=O)oc2c3c(cc(OCC(=O)NC(Cc4ccc(Cl)cc4)C(=O)O)c12)OC(C)(C)CC3 (centres undefined)
11	CSCC[C@H](N)C(=O)NCC1CCC(C(=O)Nc2ccc3c(c2)OCO3)CC1 (some centres undefined)
15	Cc1oc(-c2ccc(Cl)cc2)nc1CN1CCCC(C(=O)NCCCN2CCCC2=O)C1 (centres undefined)
5	COc1ccc(CNC(=O)[C@@H](NC(=O)C2CCN(C(=O)[C@@H](N)Cc3ccccc3)CC2)C(C)C)cc1
-1	CCCCNC(=O)c1cc(-c2ccc(OC)c(OC)c2)on1
5	Cc1cc(Nc2cccc(Cl)c2)n2ncnc2n1
5	CC1CCCN(C(c2ccccc2)c2sc3ncnn3c2O)C1 (centres undefined)
20	COc1cccc(CNC(=O)Cn2cc3c(n2)CCCC3)c1
5	COc1ccc(-c2cc(=O)c3c(OC)c(OC)c(OC)c(OC)c3o2)cc1
4	COc1ccc(OC)c(S(=O)(=O)N2CCN(c3c(C)cccc3C)CC2)c1
5	Cc1c(C)c2ccc(OCC(=O)Nc3ccccc3C(N)=O)cc2oc1=O
5	CC(=O)OC1c2ccccc2C(=O)N1Cc1ccccc1Cl (centres undefined)
17	Cn1cccc1Cc1nnc(SCC(=O)NC2CCCCC2)n1-c1ccc(F)cc1
10	OC[C@@H](O)[C@@H](O)CO
12	CN(C)S(=O)(=O)c1ccc2c(c1)c(=O)c(C(=O)N1CCN(c3ccccn3)CC1)cn2C
9	COCCn1c(CN2CCN(c3cccc(Cl)c3)CC2)nc2c1c(=O)n(C)c(=O)n2C
2	O=C(O)CCCCC1SCC2NC(=O)NC21 (centres undefined)
7	O=C(c1cnc2sccn2c1=O)N1CCCc2ccccc21
9	O=C(CCC(=O)N1CCOc2ccc(Cl)cc21)N1CCN(c2ccccn2)CC1

# New compounds follow:
Hedgehog cleavage	SMILES
10	COc1ccc(C2=NS(=O)(=O)N(C)C(C(=O)NC3CCCC3)=C2)cc1OC
6	COc1ccc(-c2nnc(NC(=O)c3ccccc3[N+](=O)[O-])s2)c(OC)c1
4	O=C(C1COc2ccccc2O1)N1CCn2c(nc3ccccc32)C1 (centres undefined)
5	Cc1ccc(C2c3[nH]c4ccccc4c3C[C@H]3C(=O)N(c4ccccc4C(=O)N4CCC[C@H]4C(=O)O)C(=O)N23)cc1 (some centres undefined)
7	CCOC(=O)Cn1c(=NC(=O)CSC(C)=O)sc2cc(F)ccc21
2	C[C@@H]1CC(=O)[C@H]2CC(CO)=CCC[C@@H]2[C@@]1(C)CC/C(=C/CO)CO
-3	Cc1ccc(N2CC(c3nc4ccccc4[nH]3)CC2=O)c(C)c1 (centres undefined)
20	O=c1oc2ccccc2cc1NCc1ccccc1O
9	Cc1ccc(C2=NS(=O)(=O)N(C)C(C(=O)NCc3ccco3)=C2)cc1
5	O=C(CCS(=O)(=O)c1ccccc1)Nc1nc2c(s1)COc1ccccc1-2
11	Cc1cc(C(=O)NCC2CCCO2)n(-c2ccccc2)n1 (centres undefined)
7	Cc1nc2sc(C(c3ccc(Cl)cc3)N3CCN(CCO)CC3)c(O)n2n1 (centres undefined)
8	CCCN1CCN(C(=O)CCCn2c(C)c3cnn(-c4ccccc4)c(=O)c3c2C)CC1
8	O=C(NCc1ccco1)C(=O)NCC1OCCN1S(=O)(=O)c1ccccc1 (centres undefined)
8	COc1ccc(F)cc1S(=O)(=O)Nc1ccc2c(c1)OCCO2
-3	COc1cccc(-n2c(SCC(=O)NCc3ccco3)nnc2-c2c[nH]c3ccccc23)c1
5	COc1c2ccoc2nc2c(OC)c(O)ccc12
2	COc1ccc(OC)c(-n2c(SC)nnc2-c2c[nH]c3ccccc23)c1
15	CCOC(=O)N1CCN(C(=O)C2CCN(Cc3nc(-c4ccccc4C)oc3C)CC2)CC1
2	CC1(C)CC(=O)c2c(O)cc(OCC(=O)NCCc3ccc(S(N)(=O)=O)cc3)cc2O1
40	COc1cc(NC(=O)c2nnn(Cc3ccc(SC)cc3)c2N)cc(OC)c1
-2	Cc1cccn2cc(CCNC(=O)c3ccc(Br)o3)nc12
3	O=C(Nc1nnc(N2CCCCCC2)s1)c1cc(-c2ccc(Br)cc2)on1
19	COc1ccc(NC(=O)CC2Oc3ccc(C)cc3NC2=O)cc1 (centres undefined)

# Another view of part of the listing above:
molecule	Hedgehog cleavage
Cc1ccc(C2=NS(=O)(=O)N(C)C(C(=O)NCc3ccco3)=C2)cc1	9
O=C(CCS(=O)(=O)c1ccccc1)Nc1nc2c(s1)COc1ccccc1-2	5
Cc1cc(C(=O)NCC2CCCO2)n(-c2ccccc2)n1 (centres undefined)	11
Cc1nc2sc(C(c3ccc(Cl)cc3)N3CCN(CCO)CC3)c(O)n2n1 (centres undefined)	7
CCCN1CCN(C(=O)CCCn2c(C)c3cnn(-c4ccccc4)c(=O)c3c2C)CC1	8
O=C(NCc1ccco1)C(=O)NCC1OCCN1S(=O)(=O)c1ccccc1 (centres undefined)	8
COc1ccc(F)cc1S(=O)(=O)Nc1ccc2c(c1)OCCO2	8
COc1cccc(-n2c(SCC(=O)NCc3ccco3)nnc2-c2c[nH]c3ccccc23)c1	-3
COc1c2ccoc2nc2c(OC)c(O)ccc12	5
COc1ccc(OC)c(-n2c(SC)nnc2-c2c[nH]c3ccccc23)c1	2
CCOC(=O)N1CCN(C(=O)C2CCN(Cc3nc(-c4ccccc4C)oc3C)CC2)CC1	15
CC1(C)CC(=O)c2c(O)cc(OCC(=O)NCCc3ccc(S(N)(=O)=O)cc3)cc2O1	2
COc1cc(NC(=O)c2nnn(Cc3ccc(SC)cc3)c2N)cc(OC)c1	40
Cc1cccn2cc(CCNC(=O)c3ccc(Br)o3)nc12	-2
O=C(Nc1nnc(N2CCCCCC2)s1)c1cc(-c2ccc(Br)cc2)on1	3
COc1ccc(NC(=O)CC2Oc3ccc(C)cc3NC2=O)cc1 (centres undefined)	19

# More results follow:
Hedgehog cleavage	SMILES
13	COC(=O)c1ccc(C2c3c(oc4ccccc4c3=O)C(=O)N2CCCN2CCOCC2)cc1 (centres undefined)
0	Cc1c(Cc2ccc3c(c2)OCO3)sc(NC(=O)c2ccc3ccccc3c2)c1C(N)=O
20	Cc1ccc2[nH]c(=O)c3cc(C(=O)NCCN4CCN(C)CC4)sc3c2c1
6	CCOc1ccc(Cn2nnc(C(=O)NCCc3ccccc3)c2N)cc1
7	Cc1ccccc1NC(=O)C1CCN(C(=O)N2CCOc3ccccc32)CC1
4	CCN1CCN(C(CNC(=O)c2ccc3c(c2)OCO3)c2cccnc2)CC1 (centres undefined)
7	CC(C)[C@@H](C(=O)N[C@@H](CCc1ccc(O)cc1)C(=O)O)N(C)C(=O)[C@H](CO)NC(=O)[C@@H](O)[C@H](N)CCCCCCCCl
7	O=C(Nc1c(C(=O)O)oc2ccc(Br)cc12)c1ccccc1
3	CCCCn1c(CN2CCOCC2)nc2c1c(=O)n(C)c(=O)n2C
0	COc1ccccc1-c1cc(C(=O)N2CCCCC2)no1
7	Cc1c(C)c2c(OCC(=O)NCc3cccnc3)cc3c(c2oc1=O)CCC(C)(C)O3
7	CSCC[C@H](NC(=O)[C@H](Cc1ccccc1)n1c(=O)[nH]c2ccccc2c1=O)C(=O)N1CCC[C@@H]1C(=O)O

# Three compounds out of the list, sorted by molar mass, low to high:
Hedgehog cleavage	SMILES
0	COc1ccccc1-c1cc(C(=O)N2CCCCC2)no1
6	CCOc1ccc(Cn2nnc(C(=O)NCCc3ccccc3)c2N)cc1
0	Cc1c(Cc2ccc3c(c2)OCO3)sc(NC(=O)c2ccc3ccccc3c2)c1C(N)=O

# Continuation.
Hedgehog cleavage	SMILES
4	CC1CN(C(=O)CCC(=O)NCc2ccccc2)c2ccccc2S1 (centres undefined)
13	O=C(Nc1nnc(-c2ccc(F)cc2)s1)c1c(F)cccc1Cl
11	COc1ccc(OC)c(-c2cc(C(=O)N3CCN(c4ccccc4)CC3)no2)c1
11	CC(C)OC(=O)c1nnc(Cc2ccc(F)cc2)o1
11	COc1ccc(CCNC(=O)CSc2nc(C)nc3c2c(=O)n(C)c(=O)n3C)cc1OC
-3	COc1cccc(-n2c(SCC(=O)N3CCOCC3)nnc2-c2c[nH]c3ccccc23)c1
12	CN(C)c1ccc(NC(=O)Cn2cc3c(n2)CCCC3)cc1
3	CCC(C)[C@H](NC(=O)C1(c2ccccc2)CCN(C(=O)OC(C)(C)C)CC1)C(=O)N[C@@H](C(=O)O)c1ccccc1 (some centres undefined)
7	Cc1cccc(O)c1C
19	Cc1ccc(-c2nc(Nc3cccc(C)c3)sc2CC(=O)O)cc1
10	Cc1c(OC(C)C(=O)NC(Cc2c[nH]c3ccc(O)cc23)C(=O)O)ccc2c1oc(=O)c1ccccc12 (centres undefined)
9	CCC(=O)NCCn1c(C)cc2ccccc21
5	Cc1nn(CCCC(=O)NCCc2ccccc2)c(=O)c2nccn12
4	CCC(C(=O)NC1CCCCC1)n1c(SCc2cccc(F)c2)nc2ccncc21 (centres undefined)
-12	COc1cccc(C2CC(c3ccc(C)cc3)n3nc(N)nc3N2)c1 (centres undefined)
3	Cc1cc(C)cc(NC(=O)C2CCN(S(=O)(=O)c3ccc4[nH]c(=O)ccc4c3)CC2)c1
0	COc1ccc(CNC(=O)C2=CC(c3ccc(C)cc3)=NS(=O)(=O)N2C)cc1
7	Cc1cccc(N2CCN(C(=O)c3cccc(NC4=NC5CS(=O)(=O)CC5S4)c3)CC2)c1C (centres undefined)
4	O=C(CN1C(=O)CCC1=O)Nc1nc2c(F)cc(F)cc2s1
9	O=C(Cc1cccc2ccccc12)Nc1nnc(-c2cccc([N+](=O)[O-])c2)s1
15	CCOC(=O)C1=C(C)Nc2nc(C)nn2C1c1ccc(OC)c(OC)c1 (centres undefined)
23	CCOC(=O)c1ccc(NS(=O)(=O)c2ccc3c(c2)oc(=O)n3C)cc1
2	Cc1ccc2c(c1)-c1c(cnn1CC(=O)N(Cc1ccco1)C1CCCCC1)CO2
-4	CCOCCn1c(CN2CCN(c3cccc(Cl)c3)CC2)nc2c1c(=O)n(C)c(=O)n2C
7	Cc1nnc(SCC2=C(C(=O)O)N3C(=O)[C@@H](NC(=O)Cn4cnnn4)[C@H]3SC2)s1
2	Cc1cc(=O)oc2c3c(cc(OCC(=O)NCCN4CCOCC4)c12)OC(C)(C)CC3
12	Cc1oc(-c2ccccc2F)nc1CS(=O)(=O)CC(=O)N1CCN(c2ccccc2)CC1
-11	CNC(=O)C1CCN(S(=O)(=O)c2c(C)noc2/C=C/c2cccc(OC)c2)CC1

# This is a subset; the hit share may differ from the screen's.
